Compound activity as filed in PubChem.
Methyltransferases: Primary Screen for Target Class Profiling of Small Molecule Inhibitors of Methyltransferases. purified enzyme, MTase-Glo SAH luminescence; stronger effect = lower value. calls only at 40 µM. 25,000 compounds, 3.9% hits. AID 1745853, 2022; active = -50% or lower on at least one of six enzymes; inconclusive = the cases between; inactive = as a rule above -30% on all six;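 further: enzymes were COMT GAMT GNMT HNMT NNMT and PNMT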
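Each enzyme was assayed with SAM and its substrate. SAH formation detected by MTase-Glo luminescence; single-point 40 uM screen[…].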
Calls only; i = inactive; ? = inconclusive; + = active, no number; ! = repeats disagree. On the % scale 0 is the no-effect control and ±100 the full control effect.

mol,Methyltransferases
CC1(C)CC[C@]2(C(=O)O[C@@H]3O[C@H](CO)[C@@H](O)[C@H](O)[C@H]3O)CC[C@]3(C)C(=CCC4[C@@]5(C)CC[C@H](O[C@@H]6O[C@H](C(=O)O)[C@@H](O[C@@H]7O[C@H](CO)[C@@H](O)[C@H](O)[C@H]7O)[C@H](O)[C@H]6O)C(C)(C)C5CC[C@]43C)C2C1 (stereo partly specified),i
O=C(c1c[nH]c(=O)[nH]1)N1CC[C@@H]2[C@@H](CCC(=O)N2CC2CCNCC2)C1,i
CSc1cccc(N2C(=O)c3cc(-c4ccco4)nn3CC2(C)C(=O)NC2CCCCCC2)c1 (stereo unspecified),i
CN1C(=O)c2cc(C(=O)NCCCN3CCCC3)nn2CC1(C)C(=O)NCc1ccccc1 (stereo unspecified),i
COc1ccc(Cl)cc1NS(=O)(=O)c1ccc2[nH]c(=O)[nH]c2c1,i
CC1CCC2(CC1)NC(=O)N(CC(=O)N1CCc3ccccc31)C2=O (stereo unspecified),i
COc1ccc(CNC(=O)c2cc3n(n2)CC(C)(C(=O)NCCC(C)C)N(C)C3=O)cc1OC (stereo unspecified),i
Cc1noc(C)c1-c1ccc2c(n1)CN(CCOc1ccccc1)C(=O)CO2,i
C=C[C@H]1[C@H](O[C@@H]2O[C@H](CO)[C@@H](O)[C@H](O)[C@H]2O)OC=C(C(=O)OC)[C@H]1CC(=O)O,i
CCC(C)N1C(=O)c2c(NC(C)=O)c3cc(F)ccc3n2CC1(C)C(=O)NC1CCCCC1 (stereo unspecified),i

Laid out differently: results already given
Structure: CC1(C)CC[C@]2(C(=O)O[C@@H]3O[C@H](CO)[C@@H](O)[C@H](O)[C@H]3O)CC[C@]3(C)C(=CCC4[C@@]5(C)CC[C@H](O[C@@H]6O[C@H](C(=O)O)[C@@H](O[C@@H]7O[C@H](CO)[C@@H](O)[C@H](O)[C@H]7O)[C@H](O)[C@H]6O)C(C)(C)C5CC[C@]43C)C2C1 (stereo partly specified)
  Methyltransferases: i
Structure: O=C(c1c[nH]c(=O)[nH]1)N1CC[C@@H]2[C@@H](CCC(=O)N2CC2CCNCC2)C1
  Methyltransferases: i
Structure: CSc1cccc(N2C(=O)c3cc(-c4ccco4)nn3CC2(C)C(=O)NC2CCCCCC2)c1 (stereo unspecified)
  Methyltransferases: i
Structure: CN1C(=O)c2cc(C(=O)NCCCN3CCCC3)nn2CC1(C)C(=O)NCc1ccccc1 (stereo unspecified)
  Methyltransferases: i

Following part.
mol,Methyltransferases
COc1cccc(S(=O)(=O)N2CCC3(CC2)CCC(O)(CN(C)C)CC3)c1,i
O=C1CCN(Cc2ccncc2)CCCC(CO)CCN1 (stereo unspecified),i
COc1ccc(-c2cc3n(n2)CC(C)(C(=O)NCc2ccccc2OC)N(Cc2ccccc2C)C3=O)cc1 (stereo unspecified),i
C/C=C(\C)C(=O)O[C@@H]1CC2[C@@H](CC=C3C[C@@H](O[C@H]4C[C@H](OC)[C@H](O[C@H]5C[C@H](OC)[C@H](O[C@@H]6O[C@H](C)[C@@H](O[C@H]7C[C@H](OC)[C@H](O[C@@H]8O[C@H](CO)[C@@H](O)[C@H](O)[C@H]8O)[C@@H](C)O7)[C@H](OC)[C@H]6O)[C@@H](C)O5)[C@@H](C)O4)CC[C@@]32C)[C@@]2(O)CC[C@H](C(C)=O)[C@@]12C (stereo partly specified),i
Cc1ccc(Cn2nc3n(CCc4ccccc4)c(=O)c4ccccc4n3c2=O)cc1,i
CC(CC(C)O[C@@H]1O[C@H](CO)[C@@H](O)[C@H](O)[C@H]1O)OC(=O)/C=C/c1ccc(O)cc1 (stereo partly specified),?
O=C1Nc2ccc(Cl)cc2[C@@](C#CC2CC2)(C(F)(F)F)O1,+!
COc1ccccc1CN1C(=O)c2nc3ccccc3n2CC1(C)C(=O)NCc1ccccc1 (stereo unspecified),i
O=C1NC2(CCN([S+](=O)([O-])c3ccccc3)C2)Oc2ccccc21 (stereo unspecified),i
C=C[C@]1(C)C[C@@H](OC(=O)CSC2C[C@H]3CC[C@@H](C2)N3C)[C@]2(C)[C@H](C)CC[C@]3(CCC(=O)[C@H]32)[C@@H](C)[C@@H]1O (stereo partly specified),i

mol,Methyltransferases
CCCN1C(=O)c2cc3c(OC)ccc(OC)c3n2CC1(C)C(=O)NC1CCCCC1C (stereo unspecified),i
CC1(C(=O)NC2CCCCC2)Cn2c(cc3sccc32)C(=O)N1C1CCCCCC1 (stereo unspecified),i
Cc1ccc2c(c1)C(N1CCN(C)CC1)=Nc1cccnc1N2,i
COCCCNC(=O)C1(C)Cn2nc(-c3ccccc3)cc2C(=O)N1c1ccc(F)cc1 (stereo unspecified),i
Cc1ccc(CNC(=O)Cn2nc3n(CCCOC(C)C)c(=O)c4ccccc4n3c2=O)cc1,i
CCCN1C(=O)c2cc(C(=O)NCc3ccccc3F)nn2CC1(C)C(=O)NC1CCCC1 (stereo unspecified),i
CC1CCC2(C)CCC3(C)C(=CCC4C5(C)CCC(O)C(C)(C(=O)O)C5CCC43C)C2C1C (stereo unspecified),i
COc1ccc(-c2cc3n(n2)CC(C)(C(=O)NCc2ccccc2)N(c2ccc(F)cc2)C3=O)cc1 (stereo unspecified),i
CCOCCCNC(=O)C1c2c(n(C)c3ccccc23)SCC(=O)N1Cc1cccnc1 (stereo unspecified),i
Cc1cnccc1CN(C)C(=O)c1cc(COc2ccc(-n3cncn3)cc2)on1,i

mol,Methyltransferases
CCOC(=O)c1cc2n(n1)CC(C)(C(=O)NCc1ccc(C)cc1)N(c1ccc3c(c1)OCO3)C2=O (stereo unspecified),i
O=C(NCCc1ccccc1)c1ccc(CN2C(=O)CCn3nc(-c4cccc(Cl)c4)cc32)cc1,i
CNC(=O)N1CCC(C2CCN(C(=O)CCc3ccccc3OC)C2)CC1 (stereo unspecified),i
COc1ccc(NC(=O)CSc2nnc3n(Cc4ccc(C)cc4)c(=O)c4ccccc4n23)cc1,i
COC(=O)C1=CO[C@@H](O[C@@H]2O[C@H](CO)[C@@H](O)[C@H](O)[C@H]2O)[C@@H]2[C@@](C)(O)[C@@H](OC(=O)/C=C/c3ccc(O)cc3)C[C@]12O,i
COc1cccc(N2CCN(C3=Nc4c(F)cccc4[C@H](CC(=O)O)N3c3cc(C(F)(F)F)ccc3OC)CC2)c1,i
CC1CCC(NC(=O)C2(C)Cn3c(cc4occc43)C(=O)N2CCCc2ccccc2)CC1 (stereo unspecified),i
CC(C)NC(=O)c1ccc2c(=O)n(C(C)C)c3nn(Cc4ccc(N5CCCC5=O)cc4)c(=O)n3c2c1,i
Cc1nc(CN2CCCC(c3[nH]ncc3Cc3ccccc3)C2)co1 (stereo unspecified),i
CC(=O)Nc1c2n(c3ccc(F)cc13)CC(C)(C(=O)NCCC(C)C)N(CCc1ccccc1)C2=O (stereo unspecified),i

Exported with each value named: part of the list above.
O=C1CCN(Cc2ccncc2)CCCC(CO)CCN1 (stereo unspecified)
- Methyltransferases = i

Cc1nc(CN2CCCC(c3[nH]ncc3Cc3ccccc3)C2)co1 (stereo unspecified)
- Methyltransferases = i

Cc1noc(C)c1-c1ccc2c(n1)CN(CCOc1ccccc1)C(=O)CO2
- Methyltransferases = i

The list goes on.
mol,Methyltransferases
COc1ccccc1CCNC(=O)c1ncn2c1C(=O)N(C1CC1)C(C)(C(=O)NCc1ccc(F)cc1)C2 (stereo unspecified),i
CC(=O)O[C@H]1[C@H](O)C[C@@]2(C)C(CC[C@]3(C)C2CC=C2C4CC(C)(C)CC[C@]4(C(=O)O)CC[C@]23C)C1(C)C (stereo partly specified),i
CSc1cccc(NC(=O)c2cc3n(n2)CC(C)(C(=O)NC2CCCCCC2)N(C)C3=O)c1 (stereo unspecified),i
Cc1cn(-c2cc(NC(=O)c3ccc(C)c(Nc4nccc(-c5cccnc5)n4)c3)cc(C(F)(F)F)c2)cn1,i
O=C(O)C1CN(C(=O)c2ccco2)CCN(C2CCOCC2)C1 (stereo unspecified),i
CCC1Oc2ccc(NC(=O)CC(C)(C)C)cc2CN(Cc2ccccc2F)C1=O (stereo unspecified),i
CO[C@H]1/C=C\O[C@@]2(C)Oc3c(C)c(O)c4c(O)c(c5c(nc6cc(C)ccn65)c4c3C2=O)NC(=O)/C(C)=C\C=C/[C@H](C)[C@H](O)[C@@H](C)[C@@H](O)[C@@H](C)[C@H](OC(C)=O)[C@@H]1C,i
CC(=O)Nc1c2n(c3ccc(F)cc13)CC(C)(C(=O)NCCC(C)C)N(C1CCCC1)C2=O (stereo unspecified),i
O=C(CC1CCCC1)N1CC(c2nc(CCOCc3ccccc3)no2)C1,i
CCC(C)NC(=O)c1ccc2c(=O)n(CC(C)C)c3nn(CC(=O)NCc4ccc(C)cc4)c(=O)n3c2c1 (stereo unspecified),i

mol,Methyltransferases
COc1ccc(C(=O)N2CCn3nc(C(O)CS(C)(=O)=O)cc3C2)cn1 (stereo unspecified),i
CCC1(C(=O)Nc2cc(OC)ccc2OC)CCCCC(=O)N1 (stereo unspecified),i
COc1cc(/C=C/C(=O)OC[C@H]2O[C@H](O[C@]3(CO)O[C@H](CO)[C@@H](O)[C@@H]3O)[C@H](O)[C@@H](O)[C@@H]2O)cc(OC)c1O,i
C=CCn1cc(CN2CCOC(Cc3cccc4ccccc34)C2)c(C)n1 (stereo unspecified),i
O=c1[nH]c2ccc(S(=O)(=O)N3CCCc4ccccc43)cc2[nH]1,i
O=C(N[C@H]1CCN2C(=O)[C@@H](Cc3c[nH]c4ccccc34)NC(=O)[C@H]12)c1cnccn1,i
CCC(C)NC(=O)c1ccc2c(=O)n(C)c3nnc(SCC(=O)Nc4cc(F)ccc4F)n3c2c1 (stereo unspecified),i
CCCn1c(=O)c2ccc(C(=O)NC(C)C)cc2n2c(SCC(=O)c3ccccc3)nnc12,i
O=C(c1ccccc1)c1ccc2nc(NC(=O)c3csc(C4CCN(c5ncnc6ccsc56)CC4)n3)[nH]c2c1,+
Cc1c(Cl)cccc1N1C(=O)c2cc3ccccc3n2CC1(C)C(=O)NC1CCCC1 (stereo unspecified),i

mol,Methyltransferases
CCOc1ccc(N(C(=O)c2ccc(Cl)cc2)S(=O)(=O)c2ccc3c(c2)n(C)c(=O)n3C)cc1,i
COc1ccc(CN2C(=O)c3cc(-c4cccs4)nn3CC2(C)C(=O)NC2CCCCCC2)cc1 (stereo unspecified),i
O=C(C[C@@H]1C[C@H]2O[C@H](CNC3Cc4ccccc4C3)[C@@H](O)[C@H]2O1)N1CCC(F)(F)C1,i
CC(C)C[C@H](NC(=O)C1OC1C(=O)O)C(=O)NCCCCN=C(N)N (stereo partly specified),i
COCC1(C(=O)N2C[C@@H](C(=O)O)[C@H](c3ccccc3OC)C2)CCC1,i
Cc1ccc2oc([C@H]3CCN(C(=O)C4CC4)C3)nc2c1,i
CCc1ccccc1Nc1nn2c(=O)c3ccc(C(=O)NCCCOC(C)C)cc3nc2s1,i
O=C(NCC(F)(F)F)c1ccc2nnc(-c3cncc(Cl)c3)n2c1,i
Cc1ccccc1CN1C(=O)c2cc3occc3n2CC1(C)C(=O)NC1CCCCCCC1 (stereo unspecified),i
C=CC1C(OC2OC(CO)C(O)C(O)C2O)OC=C(C(=O)OC)C1CC1CC(=O)CC(CCc2ccc(O)cc2)O1 (stereo unspecified),i

mol,Methyltransferases
C[N+](C)(C)CC=O,i
O=C(Nc1ccc(C(F)(F)F)cn1)N1CCN(c2ncccc2C(F)(F)F)CC1,+
COc1cccc(NC(=O)O[C@@H]2CO[C@H]3[C@@H]2OC[C@@H]3Nc2nccc(-c3ccccc3)n2)c1,i
CCCn1c(=O)c2ccc(C(=O)NC(C)CC)cc2n2c(SCC(=O)c3ccc(F)cc3)nnc12 (stereo unspecified),i
COCC(=O)N[C@H]1C[C@H]2C(=O)NC[C@@H](CCC(=O)N3CCN(c4ccccn4)CC3)N2C1,i
COC(=O)c1cc(CN2CCN(C(=N)N)CC2)cc(C(=O)N2CCN(C(=O)c3ccc(C(=N)N)cc3)CC2)c1,?
O=C(O)Cc1nn(Cc2nc3cc(C(F)(F)F)ccc3s2)c(=O)c2nccnc12,i
Cc1cc(CN2CCc3nc(C(C)C)nc(-c4ccc(Cl)cc4)c3CC2)no1,i
COc1ccc(CCNCc2ccc(OCc3ccc(Cl)nc3)c(OC)c2)cc1OC,?
COc1ccc(Cc2nnc3ccc(C(=O)N4CCN(Cc5ccccc5)CC4)cn23)cc1,i

mol,Methyltransferases
COc1ccc(CNC(=O)C2CN(S(=O)(=O)C3CC3)CC23CCCCC3)cc1 (stereo unspecified),i
CSc1ccc(CNC(=O)c2cc3n(n2)CC(C)(C(=O)NCc2ccc(C)cc2)N(C)C3=O)cc1 (stereo unspecified),i
CC[n+]1c(/C=C/C=C2/N(C)c3ccccc3C2(C)C)sc2ccccc21,+
CN(Cc1ccc2nsnc2c1)Cc1cc2n(n1)CCCNC2,i
C[C@@H](Oc1cc(-n2cnc3ccc(OC4CCN(C)CC4)cc32)sc1C(N)=O)c1ccccc1C(F)(F)F,+
Cc1ncccc1OC1(C(=O)O)CCN(C(=O)Cc2ccn(C)c2)CC1,i
CCCC(C)N1CC2(CCN(C(=O)c3cnn4c3CCCC4)CC2)OC1=O (stereo unspecified),i
CC(C)(O)C1=CCC23COC(C2)C(O)(C(=O)O)CCC13 (stereo unspecified),i
COc1cccc(CNC(=O)NC2CCc3n[nH]c(=O)n3CC2)c1 (stereo unspecified),i
O=C(NCCc1ccccc1)c1nc2sccn2c1-c1cccnc1,i
NCC(=O)N1CCC2(CC1)C(=O)NCN2C(=O)c1ccc(Cl)cc1,i
CC(C)Cn1c(=O)c2ccccc2n2c(CCC(=O)NCc3cccnc3)nnc12,i
CCN(CC)C(=O)c1cc2c(s1)CCC(C(=O)N1CCN(c3ccccn3)CC1)C2 (stereo unspecified),i

An excerpt. The share of hits here may be higher or lower than overall.
